OX1R FRET antag: blocks the human orexin 1 receptor. inhibition, % at 6.6 µM. hit rate 1.8% among 330,000. O43613. OX1R-expressing cells, FRET antagonist read-out; in the data active means inhibition mostly above about 38%, no sharp cut-off; inactive means mostly below about 40%;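 further: 0% = agonist challenge alone and 100% = reference antagonist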
Target sequence (O43613 whole entry, looked up): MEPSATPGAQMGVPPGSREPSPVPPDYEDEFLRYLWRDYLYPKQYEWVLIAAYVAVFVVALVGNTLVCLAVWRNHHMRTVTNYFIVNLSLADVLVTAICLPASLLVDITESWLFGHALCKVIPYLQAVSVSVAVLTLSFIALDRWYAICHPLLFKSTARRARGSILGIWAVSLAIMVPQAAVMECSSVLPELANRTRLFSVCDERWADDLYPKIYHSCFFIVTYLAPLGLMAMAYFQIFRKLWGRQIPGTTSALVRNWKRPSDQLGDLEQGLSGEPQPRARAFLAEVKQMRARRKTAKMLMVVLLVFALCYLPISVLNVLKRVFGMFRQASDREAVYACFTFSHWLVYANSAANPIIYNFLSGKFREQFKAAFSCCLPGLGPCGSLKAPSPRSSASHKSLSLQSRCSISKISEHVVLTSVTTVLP
Starred values were filed as active, the others as inactive. An excerpt; most or all hits stand in other tables.

SMILES | OX1R FRET antag
Cc1ccc(SCc2ccc(C(=O)Nc3cccc([N+](=O)[O-])c3)cc2)cc1 | 10.2
Cc1cc(=O)[nH]c(SCc2cccc(Br)c2)n1 | 18.4
O=C(NCCCN1CCOCC1)c1ccc2c(=O)n(Cc3ccccc3)c(=S)[nH]c2c1 | 20.0
COc1ccccc1CNC(=O)C1CCC(CNS(=O)(=O)c2ccc(NC(C)=O)cc2)CC1 (stereo not drawn) | 4.7
O=C(Cn1cnc(S(=O)(=O)N2CCCCC2)c1)N1CCN(c2ccc([N+](=O)[O-])cc2)CC1 | 15.4
COc1ccc(-c2nnnn2-c2ccc(F)cc2F)cc1 | 3.2
O=C(CCl)N=c1sccn1Cc1ccccc1Cl | 11.0
O=C(CBr)c1ccc([N+](=O)[O-])c(CS(=O)(=O)c2ccc(Cl)cc2)c1 | 32.1
COc1cc2c(cc1OC)CN(C(=O)c1ccc(S(=O)(=O)N3CCCCC3)cc1)CC2 | 8.8
O=C(NCc1ccccn1)c1cccc(NS(=O)(=O)c2ccccc2)c1 | 13.3
O=C(CSc1nc2c(c(=O)n1-c1ccc(Br)cc1)SCC2)Nc1nccs1 | 10.4
Fc1ccc(N2CCN(C(c3cccs3)c3nnnn3C3CCCC3)CC2)cc1 (stereo not drawn) | -2.8
O=C(N/C=C/c1ccco1)OCc1ccccc1 | 16.5
NC(=O)C1=CN(Cc2ccc(Cl)cc2)CCC1C(F)(F)F (stereo not drawn) | 5.1
CCn1c(CNC(=O)Cc2ccc(OC)cc2)n[nH]c1=S | 16.8
COc1ccc(OC)c2sc(Cl)nc12 | 12.4
Cc1ccc(S(=O)(=O)N2CCN(c3ncccn3)CC2)c(C)c1 | 18.4
COc1ccc(C2NC(=S)NC(C)=C2C(=O)N2CCOCC2)cc1 (stereo not drawn) | 12.8
CCN1CCN(Cc2ccc(NC(=O)c3cc(NC(=O)c4cncc(-c5cccs5)c4)cc(OC)c3)cc2C(F)(F)F)CC1 | 2.0
Cc1cccc(OCc2n[nH]c(=S)o2)c1C | 11.9
O=c1c2ccccc2c(=O)n2n1Cc1ccccc1C2 | 0.7
Cc1cc(-c2n[nH]c(=S)n2/N=C/c2ccco2)n[nH]1 | 0.7
O=C(O)c1ccc(CNC(=O)c2ccc(S(=O)(=O)N3CCCCC3)cc2)cc1 | 6.3
C(=N\Nc1nc(Nc2ccccc2)nc(N2CCCCC2)n1)/c1ccco1 | 33.8
CCCCS(=O)Cc1ccccc1 (stereo not drawn) | 4.5

The results go on.
SMILES | OX1R FRET antag
N#Cc1cnn(-c2ccccc2)c1N | 19.3
CCOc1cccc(/C(O)=C2/C(=O)C(=O)N(Cc3ccco3)C2c2ccncc2)c1 (stereo not drawn) | 7.7
O=C(NC1CC1)c1ccc2snnc2c1 | 4.8
O=C(C[n+]1cc(-c2ccccc2)n2c1CCC2)N1c2ccccc2Sc2ccccc21 | 10.7
COc1cc(OC)c(C2CC(=O)N3CN(c4ccc(C)cc4)CSC3=C2C#N)cc1OC (stereo not drawn) | 18.3
COc1ccc(Cc2nnc(NCCO)[nH]c2=O)cc1OC | 2.5
CSc1nc(-c2ccccc2)c(C#N)c(=O)[nH]1 | 32.2
Cc1ccccc1N1CCN(C2CCCN(C(=O)CN3CCCC3=O)C2)CC1 (stereo not drawn) | 22.9
Cc1cc(C)cc(N2C(=O)CC(Sc3nnnn3-c3ccccc3)C2=O)c1 (stereo not drawn) | 12.0
COc1ccc(OC)c(NC(=O)C2CC(=O)N(CCc3ccccc3)C2)c1 (stereo not drawn) | 0.5
CCOC(=O)c1ccc(NC(=S)NNC(=O)C2(C)CC2(Cl)Cl)cc1 (stereo not drawn) | 35.1
C=CCn1c(SCC(=O)Nc2sc3c(c2C#N)CCC3)nnc1C1COc2ccccc2O1 (stereo not drawn) | 20.9
CN(C)CCCNC1=CC(=O)CC(c2ccccc2)C1 (stereo not drawn) | 4.6
COc1ccc(N2C(=O)CC(NNC(=O)c3cccnc3)C2=O)cc1 (stereo not drawn) | 0.8
CC1CCN(C(=O)C2CCN(S(=O)(=O)c3ccc(-n4cnnn4)cc3)CC2)CC1 | 13.6
Cc1cccc(N2C(=O)C3C4C=CC(C5CC45)C3C2=O)n1 (stereo not drawn) | 0.7
COc1cccc(C(CNC(=O)c2ccc(Cl)c(S(=O)(=O)N3CCCC3)c2)N(C)C)c1 (stereo not drawn) | -1.5
CCOc1ccccc1NC(=O)CN(c1ccc(OC)cc1)S(=O)(=O)c1c(C)[nH]c(=O)[nH]c1=O | 9.1
c1ccc2c(c1)OCCc1c-2[nH]c2ccccc12 | 21.8
COc1ccc(C(CC(=O)N2CCCCC2)c2c(OC)cc(OC)c3ccc(=O)oc23)cc1 (stereo not drawn) | 6.0
CNC(=S)N(CCc1ccc(OC)c(OC)c1)Cc1cc2c(C)cc(C)cc2[nH]c1=O | 17.7
Cc1nnc(SCC(=O)Nc2ccccc2C(=O)NC2CC2)s1 | 9.3
Cc1cc(C)nc(-n2nc(C)c(C3(O)C(=O)Nc4ccccc43)c2N)n1 (stereo not drawn) | 12.5
Cn1nc(C(=O)OCC(=O)NCCc2ccccc2)c2ccccc2c1=O | 16.8
CNC(=O)c1cc2cc(OC)ccc2oc1=O | 36.0

An excerpt of these results, as a markdown table:
| SMILES | OX1R FRET antag |
| --- | --- |
| Cc1cccc(N2C(=O)C3C4C=CC(C5CC45)C3C2=O)n1 (stereo not drawn) | 0.7 |
| COc1cccc(C(CNC(=O)c2ccc(Cl)c(S(=O)(=O)N3CCCC3)c2)N(C)C)c1 (stereo not drawn) | -1.5 |
| CCOc1ccccc1NC(=O)CN(c1ccc(OC)cc1)S(=O)(=O)c1c(C)[nH]c(=O)[nH]c1=O | 9.1 |
| c1ccc2c(c1)OCCc1c-2[nH]c2ccccc12 | 21.8 |
| COc1ccc(C(CC(=O)N2CCCCC2)c2c(OC)cc(OC)c3ccc(=O)oc23)cc1 (stereo not drawn) | 6.0 |

Quoted at random: two records from the list, in no set order.
SMILES | OX1R FRET antag
CNC(=O)c1cc2cc(OC)ccc2oc1=O | 36.0
C(=N\Nc1nc(Nc2ccccc2)nc(N2CCCCC2)n1)/c1ccco1 | 33.8

Next part
SMILES | OX1R FRET antag
Cc1cccc(NC(=O)c2ccc(NCCO)c([N+](=O)[O-])c2)n1 | 38.6
CN(c1ccccc1)S(=O)(=O)c1ccc(C(=O)Nc2nccs2)cc1 | 14.9
Cc1cccc(C(=O)OCC(=O)NC(=O)Cc2ccccc2)c1O | 7.4
COc1ccc(/C=C2\SC(=S)N(CCC(=O)Nc3ccc(C(=O)O)cc3)C2=O)cc1OC | -8.2
O=C(c1ccc2ccccc2c1)N1CCCCC1 | 4.4
CCc1ccc(Nc2nnc(SC3CCOC3=O)s2)cc1 (stereo not drawn) | 6.3
COc1ccc(S[C@@H](CCN2CC[C@H](C)CCC2=O)c2ccccc2)cc1 | 4.7
CC(C)C(=O)Nc1nnc(SCC(=O)N2c3ccccc3CC2C)s1 (stereo not drawn) | 12.0
COc1cccc(C2c3[nH]c4ccccc4c3C[C@H]3C(=O)N(C)CC(=O)N23)c1 (stereo partly drawn) | -5.4
CCOC(=O)Cn1cnc2sc(C(=O)OC)c(C)c2c1=O | 8.7
C[C@H](CO)N1C[C@H](C)[C@@H](CN(C)C(=O)Nc2ccc(C(F)(F)F)cc2)Oc2ccc(NC(=O)NC3CCCCC3)cc2C1=O | -1.3
CCCCNC(=O)Cn1cnc2sc(C)c(S(=O)(=O)N3CCN(c4ccccc4OC)CC3)c2c1=O | 1.8
COc1cccc(-c2nnc(SCc3ccc(C#N)cc3)n2Cc2ccco2)c1 | 23.9
CCCNC(=O)N1CCC(n2nccc2NC(=O)CCOc2ccccc2)CC1 | 4.8
Cc1cccc(C)c1NC(=S)N(Cc1ccco1)C1CCN(C(C)C)CC1 | 4.1
Cc1onc(CO)c1C(=O)Nc1nccs1 | 13.4
CCCC(C(=O)NC(C)(C)CC)N(CC1CCCO1)C(=O)CNS(=O)(=O)c1ccc(F)cc1 (stereo not drawn) | 25.8
CCOC(=O)c1ccc(-c2ccc(/C=C(\C#N)C(=O)NCC3CCCO3)o2)cc1 (stereo not drawn) | 27.6
COc1ccc(OCC(=O)N/N=C(\CCC(=O)O)c2cccs2)cc1 | 16.4
CCOc1ccc(C(=O)NCCN2CCCC2)cc1 | 14.7
COc1cc(C(=O)OCC(=O)Nc2ccc(S(=O)(=O)NC3=NCCCCC3)cc2)cc(OC)c1OC | 6.6
CSc1cccc(NC(C)C(=O)NCc2ccccc2)c1 (stereo not drawn) | 41.5
COCCn1c(-c2ccc(-c3ccccc3Cl)o2)nc2c1c(=O)[nH]c(=O)n2CC(C)C | 10.0
Cc1cccc(Nc2c([N+](=O)[O-])ccc3nonc23)c1 | 2.8
COc1cc(OC)cc(OCC(O)Cn2cnc3cc(C)c(C)cc32)c1 (stereo not drawn) | 14.6

Further compounds:
SMILES | OX1R FRET antag
Cc1ccc(Nc2nc(N)c([N+](=O)[O-])c(NCCO)n2)cc1 | 12.6
O=C(c1ccc(N2C(=O)c3ccccc3C2=O)cc1)N1CCCCC1 | 19.8
O=C(NCCc1ccccc1)C(=O)Nc1ccc([N+](=O)[O-])cc1 | 10.1
Brc1cnc(N2CCCC2)nc1N1CCCCC1 | 14.4
c1ccc(-c2nc(N3CCCCCC3)nc(-n3ccnc3)n2)cc1 | 19.2
CC(C)Oc1cccc(C(=O)C2CCCN(C(=O)c3ccccn3)C2)c1 (stereo not drawn) | 2.1
Cc1n[nH]c(=S)n1/N=C/c1ccc(Br)o1 | 2.7
CCOc1ccc(-c2cc(CCCC(=O)Nc3cc(OC)ccc3OC)no2)cc1 | 19.2
Cc1ccc(NC(=O)NC2CCCN2S(=O)(=O)c2ccc(Cl)cc2)cc1 (stereo not drawn) | 16.8
O=C(O)CC1CCS(=O)(=O)C1 (stereo not drawn) | 19.1
Cc1cc(NC(=O)CCOc2ccccc2)no1 | 5.7
CC12OC1C1(O)CCCC1=CC2=O (stereo not drawn) | 10.5
CCOC(=O)CNC(=O)CSc1nnc(Cn2cnc3ccccc32)n1C | 20.8
COc1ccc(/C(C)=N/NC(=S)Nc2cc(C)ccc2C)cc1 | 8.9
CC(=O)c1ccc(S(=O)(=O)Nc2ccc3c(c2)OCO3)cc1 | 6.3
COCC(C)NCc1cccc2ccccc12 (stereo not drawn) | 20.7
CC(C)n1c(-c2ccc(C(C)(C)C)cc2)n[nH]c1=S | 11.4
COCCCNC(=O)c1ccc(CS(=O)(=O)c2ccccc2OC)o1 | -1.7
CC(CCC(=O)O)C1CC[C@H]2C3CCC4CC(=O)CCC4(C)[C@H]3CC(=O)C12C (stereo partly drawn) | 10.7
Cc1cc(NS(=O)(=O)c2ccc(NC(=O)c3ccco3)cc2)nc(C)n1 | 23.1
CCCS(=O)(=O)c1snnc1C | 2.6
COc1ccc(OC)c(-c2nnc3n2N=C(c2ccc(OC)c(OCC4CC4)c2)CS3)c1 | 25.4
Cc1c(C(=O)N2CCCC2)sc(NC(=O)c2ccccc2)c1C#N | 2.2
CCC(C)N(C(=O)CSc1nc2ccc(OC)cc2[nH]1)C1CCS(=O)(=O)C1 (stereo not drawn) | -2.0
CCN(CC(=O)Nc1ccccc1OC)C(=O)CC1CCCC1 | 4.8

Taken from the results shown for reference:
SMILES | OX1R FRET antag
Cc1ccc(Nc2nc(N)c([N+](=O)[O-])c(NCCO)n2)cc1 | 12.6
O=C(c1ccc(N2C(=O)c3ccccc3C2=O)cc1)N1CCCCC1 | 19.8
O=C(NCCc1ccccc1)C(=O)Nc1ccc([N+](=O)[O-])cc1 | 10.1

(listing goes on)
SMILES | OX1R FRET antag
N#CCc1nn(-c2ccccc2)c2ncnc(N)c12 | 23.9
Cc1sc(C(=O)Nc2ccc3ccccc3c2)cc1CC(=O)O | 11.1
Cc1ccc(NC(=S)N(CCN(C)C)Cc2cccs2)c(C)c1 | 11.1
CN1CCc2c(OCC(=O)N3CCCc4ccccc43)cccc2C1=O | 9.7
CCOC(=O)N1CCN(C(=O)CCn2nc(-c3ccc(Cl)cc3)ccc2=O)CC1 | 13.9
C/C(=N\NS(=O)(=O)c1ccc(C(C)(C)C)cc1)c1ccccc1 | -7.0
COc1ccc(NC(=O)NNC(=O)c2ccc3ccccc3c2)cc1OC | 29.2
NC(=O)c1ccc(-c2c(-c3ccccc3)sc3ccccc23)cc1 | 10.9
CCOc1ccc(/C=C/C2=CC(C)(C)NC(=S)N2)cc1 | 10.5
Cc1onc(-c2ccccc2Cl)c1C(=O)NCc1ccc(F)cc1 | 13.5
C=CCNC(=O)c1ccc(-c2nc3ccccc3nc2-c2ccccc2)cc1 | 6.0
CCOc1ccc(N2CC(C(=O)OCC(=O)c3ccc(OC)cc3)CC2=O)cc1 (stereo not drawn) | 18.5
N#C/C(=C\c1ccc[nH]1)C(=O)NCC1CCCO1 (stereo not drawn) | 10.7
Cc1ccc(S(=O)(=O)N/N=C/c2cccn2-c2ccc(Cl)cc2)cc1 | 11.0
Cn1c(=O)n(CC(=O)OCc2ccccc2)c(=O)c2c1nc1n2CCCN1C1CCCCC1 | 16.7
c1cnc(SCCCOc2ccc3ccccc3c2)nc1 | 17.7
COc1cccc(C(=O)Nc2ccc3c(c2)C(=O)NC3=O)c1 | 1.4
COCCCN1C(=O)c2ccc(C(=O)Nc3cccc(OC)c3)cc2C1=O | 17.7
CC(C)CC(=O)NC(NCC1CCCO1)C(Cl)(Cl)Cl (stereo not drawn) | 23.8
O=C(OCc1cnc(Cl)s1)c1cccc(Cl)c1Cl | 21.3
CC1CCCC(C)N1C(=O)CSc1nnc(CSc2ncccn2)n1C (stereo not drawn) | 15.1
CCOC(=O)C1=C(C)NC(C)=C(C(=O)OCC)C1/C=C/c1ccccc1 | 11.8
COC(=O)c1ccc(S(=O)(=O)N2CCN(CCO)CC2)n1C | 11.1
COc1ccccc1CNC(=O)CS(=O)(=O)Cc1ccccc1 | 6.0
O=C(O)c1ccccc1S(=O)CCO (stereo not drawn) | 13.9
CC(C)CCN1CCN(Cc2nc(-c3ccccc3)cs2)CC1CCO (stereo not drawn) | 10.9
COc1cc(C(C(=O)NC2CCCC2)N(C(=O)c2ccco2)c2ccccc2C(C)=O)cc(OC)c1OC (stereo not drawn) | 24.9
Cc1ccc(NC(=O)CSc2nnc(-c3cccnc3)n2CCN2CCCCC2)cc1 | 3.6
OC1C[N+]2(CCCCC2)C1 | 3.5

Assay outcomes deposited in PubChem BioAssay by The Scripps Research Institute Molecular Screening Center.
